# Screens deposited in PubChem by ICCB-Longwood Screening Facility, Harvard Medical School.
# Vaccinia pol inh: vaccinia E9 polymerase processive synthesis inhibition; AID 493162; 0.94% of 46,000 active; normalized absorbance, % (test concentration not listed); in vitro processive DNA synthesis, absorbance read-out; hits give low values; some inactives read as strong as hits;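 active means replicate mean up to 90% and picked by the depositor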;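 further: 100% = median of the test wells of a plate; 100 nL library stock went into each well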
# * = called active by the depositor. These rows are one share of the data (hit frequency here may not be typical).
SMILES,Vaccinia pol inh
CCc1nnc(NC(=O)Nc2ccc3c(c2)N(C)C(=O)CS3)s1,83
CC(C)CCNC(=O)C1CCN(c2nc3ccccc3o2)CC1,104
Cc1c(C(=O)Cc2c(O)c3ccccc3oc2=O)sc2nc(C(F)(F)F)nn12,93
CC(C)C(=O)Nc1ccccc1C(F)(F)F,100
COC(=O)Nc1c(C)cc(C)cc1C,100
CCCc1nc2c(sc(=S)n2-c2ccccc2)c(=O)[nH]1,102
Fc1ccc(CN2CCCN(Cc3ccc(F)cc3)C2c2csnn2)cc1,104
CC(C)(C)C(=O)Oc1ccc2cc(-c3ccc4ccccc4n3)c(=O)oc2c1,87
CC1CC(C)CN(S(=O)(=O)c2ccc(F)c(C(=O)NCc3ccccc3)c2)C1 (stereo not drawn),99
CCOC(=O)c1c(-c2ccccc2)csc1NC(=O)C(F)(F)F,77
Cc1ccc(C(=O)Oc2cc(C)cc(OC(=O)c3ccc(C)cc3)c2)cc1,101
FC(F)(F)c1cccc(NC(=S)N2CCCC2)c1,101
Fc1ccc(Cc2nc3ccccc3[nH]2)cc1,102
COC(=O)Cn1c(Cl)nc2c1c(=O)n(C)c(=O)n2C,100
O=C1C=CC(=O)N1CC(c1ccccc1)c1ccccc1,100
O=C1C(=Cc2cn[nH]c2-c2ccc(F)cc2)C(=O)c2ccccc21,100
S=C1NCN(C(Cc2ccccc2)c2ccccc2)CN1 (stereo not drawn),87
COc1ccc(CC(CC(=O)O)C(=O)Nc2ccccc2)cc1 (stereo not drawn),99
C=CCSc1nc2ccsc2c(=O)n1-c1ccccc1,125
Cc1ccccc1C(=O)N1C(=O)c2ccccc2S1(=O)=O,100
CC(=O)Nc1cc(C(=O)N2CCc3ccccc3C2)ccc1Sc1ccc(Cl)cc1,94
Cn1c(CN2CCOCC2)c(C#N)c2ccccc21,100
COc1ccc(/C=C2/Oc3ccccc3N(CC(=O)O)C2=O)cc1,85
Cc1ccc(/C(=C\CN2CCCC2)c2ccccn2)cc1,101
C=CCNC(=O)c1ccc2c(c1)N(Cc1ccccc1)C(=O)CS2,105
COc1ccc(OCc2nc3ccccc3n2CC(C)C)cc1,94
O=C(CSC1=NCCS1)N1CCc2ccccc21,101
O=C1OC(c2ccccc2)=N/C1=C/c1cccc(F)c1,100
CC1(C)Cc2c(C#N)c(NCC3CCCO3)nc(-c3ccccc3)c2CO1 (stereo not drawn),100
O=C(/C=C/c1cccc(Cl)c1Cl)Nc1cc2ccccc2oc1=O,100
Nc1nc(-c2cc(Cl)sc2Cl)cs1,98
CC1(C)CC2(CC(C)(C(=O)CSc3nc4ccccc4s3)OC2=O)C(=O)O1 (stereo not drawn),100
Cc1[nH]c2ccccc2c1C(c1cccs1)N1CCC(C(N)=O)CC1 (stereo not drawn),100
CCOC(=O)N1CCN(C(=O)CSc2nc3ccccc3s2)CC1,100
Cc1cc(C)cc(NC(=O)Nc2nnc(N3CC(C)CC(C)C3)s2)c1 (stereo not drawn),103
N#CC(C(=O)Cc1cccc2ccccc12)c1nc2ccccc2[nH]1 (stereo not drawn),107
CC1SC2(CCCCC2)N(c2ccc(Cl)cc2)C1=O (stereo not drawn),100
COc1ccc(C(=O)Oc2c(C)cc(C(O)(C(F)(F)F)C(F)(F)F)cc2C)cc1,101
CCc1ccc(Oc2c(C(F)(F)F)oc3c(CN4CCCCC4)c(O)ccc3c2=O)cc1,100
CN1/C(=C/C(=O)C(C#N)C2=NCCC2)C(C)(C)c2ccccc21 (stereo not drawn),97
O=C(O)C1Cc2ccccc2C1,86
NC(=O)c1cc2ccccc2oc1=Nc1ccc(Cl)cc1Cl,98
Nc1c(C(=O)c2ccccc2)sc2nccc(Nc3ccccc3)c12,98
Cc1ccc(NC(=O)CN2C(=O)CCC2=O)c(C(=O)c2ccccc2)c1,96
CC(C)(C)OC(=O)N1CCCC1C(=O)Oc1ccc2c(=O)c(-c3ccc4c(c3)OCCO4)coc2c1 (stereo not drawn),100
CN(C)C(=O)c1c2c(nc3ccccc13)CCCC2,102
Cc1nc(COc2cc(C)c(Cl)c(C)c2Cl)cs1,93
COc1ccc(C(=O)NCc2nnc(SC)n2Cc2ccccc2)cc1,101
COc1ccccc1/C=C1\SC(=O)N(CC(=O)N2CCOCC2)C1=O,100
O=C(COC(=O)Cc1c(F)cccc1Cl)NCc1ccc(Cl)cc1,107
Cc1ccc(-c2cc(-c3ccccc3)nc(N)c2C#N)o1,105
Cc1ccc(C(=O)CSc2ncnc3sc(C)c(C)c23)cc1,101
Cc1cccc(CS(=O)(=O)Cc2ccc(C(=O)NCCC3=CCCCC3)o2)c1,97
COc1ccc(Cl)cc1NC(=O)c1cc2c(Cl)nc3ccc(C)cc3c2s1,100
CCOC(=O)c1ccc(NC(=O)Cc2noc3ccccc23)cc1,96
Cc1cc(Cl)ccc1OCC(=O)OCC(=O)N1CCCCC1,93
C/C=C(/C(=O)O)c1ccccc1OC,99
CC(C)c1ccc(C2=C(O)c3ccccc3C(=O)C2=O)cc1,98
O=C(c1ccc(F)cc1)N1CCCCC(Sc2nnc3sc4ccccc4n23)C1=O (stereo not drawn),100
O=S(=O)(NC1CCCCC1n1cc(-c2ccccc2)nn1)c1ccccc1 (stereo not drawn),71

# Following part
SMILES,Vaccinia pol inh
COc1ccc(-c2nn(C)c3ccccc23)cc1,100
Cc1oc2cc(OCC#N)ccc2c(=O)c1-c1ccc2c(c1)OCCCO2,93
Cc1ccc(C2=NC(CC(C)C)NC(c3ccccc3O)C2)cc1 (stereo not drawn),101
O=c1[nH]c2ccc(Cl)cc2c(-c2ccccc2)c1CN1CCCCC1,99
CN(C)c1sc(C(=O)c2ccccc2)cc1-c1ccccc1,113
O=C(Cc1ccccc1)NC1(C(=O)Nc2cccc(Cl)c2)CCCCC1,99
O=C1SC(=S)N/C1=C/c1cccc(O)c1,73
CC1CN(C2=NC(=O)/C(=C/c3ccccc3)S2)CC(C)O1 (stereo not drawn),100
CC1CN(C(=O)c2ccccc2)OC(c2ccc3c(c2)OCO3)O1 (stereo not drawn),96
O=C1NC(=O)C(Cc2ccccc2)N1 (stereo not drawn),113
Cc1cccc(OCc2nc(-c3ccccc3)no2)c1,96
CCc1nnc(SCc2ccccc2)c2cc3occc3n12,91
CC12CC(NC(=O)N1Cc1ccccc1)c1ccccc1O2 (stereo not drawn),94
C(=Nc1cccnc1)c1ccccc1,103
Cc1ccc(SCc2nc3ncccn3c2Br)cc1,91
CCOC(=O)c1ccc2nc(C(F)(F)F)nc(N3CCCCC3)c2c1,104
Clc1cccc(CNc2ccc3nnc(-c4ccccc4)n3n2)c1,98
CSc1nc2c(cc1C#N)CCCCC2,100
Cc1ccccc1Cn1cc(CCCC(=O)O)c2ccccc21,90
O=C(c1ccc(S(=O)(=O)N2CCCC2)cc1)N1CCc2ccccc21,94
O=C(Nc1ccccc1)Nc1ccc(S(=O)(=O)Nc2ccc(F)cc2)cc1,100
CC(=O)Oc1ccc2c3c(c(=O)oc2c1)CCC3,95
CCn1c(C(=O)NCCc2ccccc2)cc2oc3ccccc3c21,92
COc1cccc(CNS(=O)(=O)c2ccc3[nH]c(=O)ccc3c2)c1,104
CC(NC(=O)CCc1nc2ccccc2s1)C1CC2CCC1C2 (stereo not drawn),98
CCCC(CCC)C(=O)Nc1cc(-c2cn3cccnc3n2)ccc1C,104
COC(=O)c1[nH]c2ccccc2c1I,86
Cc1c(C(=O)NCc2cccc(Cl)c2)oc2ccc3c(c12)C(=O)CC(C)(C)O3,102
Cc1cc(C)n(C(=O)CCC(=O)O)n1,98
COc1ccc(CCn2c(NN)nc3ccsc3c2=O)cc1OC,103

# Some of the entries above in a different format.
Structure	Vaccinia pol inh
C/C=C(/C(=O)O)c1ccccc1OC	99
CC(C)c1ccc(C2=C(O)c3ccccc3C(=O)C2=O)cc1	98
O=C(c1ccc(F)cc1)N1CCCCC(Sc2nnc3sc4ccccc4n23)C1=O (stereo not drawn)	100
O=S(=O)(NC1CCCCC1n1cc(-c2ccccc2)nn1)c1ccccc1 (stereo not drawn)	71
COc1ccc(-c2nn(C)c3ccccc23)cc1	100
Cc1oc2cc(OCC#N)ccc2c(=O)c1-c1ccc2c(c1)OCCCO2	93
Cc1ccc(C2=NC(CC(C)C)NC(c3ccccc3O)C2)cc1 (stereo not drawn)	101
O=c1[nH]c2ccc(Cl)cc2c(-c2ccccc2)c1CN1CCCCC1	99
CN(C)c1sc(C(=O)c2ccccc2)cc1-c1ccccc1	113
O=C(Cc1ccccc1)NC1(C(=O)Nc2cccc(Cl)c2)CCCCC1	99
O=C1SC(=S)N/C1=C/c1cccc(O)c1	73
CC1CN(C2=NC(=O)/C(=C/c3ccccc3)S2)CC(C)O1 (stereo not drawn)	100
CC1CN(C(=O)c2ccccc2)OC(c2ccc3c(c2)OCO3)O1 (stereo not drawn)	96
O=C1NC(=O)C(Cc2ccccc2)N1 (stereo not drawn)	113
Cc1cccc(OCc2nc(-c3ccccc3)no2)c1	96
CCc1nnc(SCc2ccccc2)c2cc3occc3n12	91
CC12CC(NC(=O)N1Cc1ccccc1)c1ccccc1O2 (stereo not drawn)	94
C(=Nc1cccnc1)c1ccccc1	103
Cc1ccc(SCc2nc3ncccn3c2Br)cc1	91
CCOC(=O)c1ccc2nc(C(F)(F)F)nc(N3CCCCC3)c2c1	104
Clc1cccc(CNc2ccc3nnc(-c4ccccc4)n3n2)c1	98
CSc1nc2c(cc1C#N)CCCCC2	100
Cc1ccccc1Cn1cc(CCCC(=O)O)c2ccccc21	90
O=C(c1ccc(S(=O)(=O)N2CCCC2)cc1)N1CCc2ccccc21	94
O=C(Nc1ccccc1)Nc1ccc(S(=O)(=O)Nc2ccc(F)cc2)cc1	100
CC(=O)Oc1ccc2c3c(c(=O)oc2c1)CCC3	95
CCn1c(C(=O)NCCc2ccccc2)cc2oc3ccccc3c21	92
COc1cccc(CNS(=O)(=O)c2ccc3[nH]c(=O)ccc3c2)c1	104
CC(NC(=O)CCc1nc2ccccc2s1)C1CC2CCC1C2 (stereo not drawn)	98
CCCC(CCC)C(=O)Nc1cc(-c2cn3cccnc3n2)ccc1C	104
COC(=O)c1[nH]c2ccccc2c1I	86
Cc1c(C(=O)NCc2cccc(Cl)c2)oc2ccc3c(c12)C(=O)CC(C)(C)O3	102
Cc1cc(C)n(C(=O)CCC(=O)O)n1	98
COc1ccc(CCn2c(NN)nc3ccsc3c2=O)cc1OC	103

# Next structures follow.
SMILES,Vaccinia pol inh
COC(Cn1c(SCC(=O)c2cccc(C(F)(F)F)c2)nnc1-c1ccc(Cl)cc1)OC,100
CC1=CCC2C(=O)N(c3ccc(O)cc3)C(=O)C2C1 (stereo not drawn),100
O=C(O)CC(NC(=O)C(c1ccccc1)c1ccccc1)c1ccc(F)cc1 (stereo not drawn),103
COc1ccc(OCC(=O)c2c(O)c3ccccc3oc2=O)cc1,100
Cc1ccc(NS(=O)(=O)c2cccc(C(=O)NC(C)(C)C)c2)c(C)c1,108
O=C(/C=C/c1cccs1)Nc1ccc(-c2nc3ccccc3o2)cc1,101
c1ccc(Cn2cc3c(-c4ccccc4)nnc-3c3ccccc32)cc1,87
O=c1c2ccccc2c(/C=N/c2ccccn2)c(O)n1-c1ccccc1,100
Cc1cc(C)n(-c2nc(-c3cccnc3)nc3ccccc23)n1,86
COc1ccc(-c2csc(=Nc3ccccc3)n2CCCN(C)C)cc1,99
O=S(=O)(c1ccccc1)n1ccc2cccnc21,111
COC(=O)C1=C(N)N(c2cccc(C(F)(F)F)c2)C2=C(C(=O)CCC2)C1c1ccccc1 (stereo not drawn),101
CCC(Sc1nncn2c1cc1oc(C)cc12)C(=O)NCc1ccc(C)cc1 (stereo not drawn),100
COc1ccc2c(Cl)c(-c3nnc(SCC(N)=O)n3C)sc2c1,99
Cn1c(Cc2nc(-c3cnccn3)no2)nnc1SCC(=O)Nc1ccc(Cl)cc1,109

# As a working copy, two of the compounds above:
SMILES,Vaccinia pol inh
COC(Cn1c(SCC(=O)c2cccc(C(F)(F)F)c2)nnc1-c1ccc(Cl)cc1)OC,100
CC1=CCC2C(=O)N(c3ccc(O)cc3)C(=O)C2C1 (stereo not drawn),100

# Remaining list, next part.
SMILES,Vaccinia pol inh
COc1ccc(C2(C(=O)NCCc3ccccc3)CCCC2)cc1OC,99
CCc1nc(SC/C=C/c2ccccc2)c(C#N)cc1C,100
Cn1c(=O)c(C(CC(=O)c2cc3ccccc3oc2=O)Nc2ccccc2)c(O)c2ccccc21 (stereo not drawn),98
CCOc1ncccc1C(=O)NCc1ccc(OC)cc1,102
O=C1S/C(=C/c2ccccc2)C(=O)N1CCOc1ccccc1,90
O=C(C[n+]1ccc(/C=N/O)cc1)NC1CCCCC1,100
COc1cc(OC)c(C2C3=C(CC(C)(C)CC3=O)Nc3nc4ccccc4n32)cc1OC (stereo not drawn),109
O=C(NO)C1CC2C=CC1C2 (stereo not drawn),100
O=C(NCCc1ccc(Cl)cc1)C12CC3CC(CC(C3)C1)C2,101
